ClpP mod: qHTS Assay for Activators of ClpP; ATP-dependent Clp protease proteolytic subunit (Bacillus subtilis (strain 168)), P80244; purified B. subtilis ClpP, FRET peptide cleavage, 20 min; Potency, µM (titrated, usually from 57.5 µM), for inactives: at the highest dose activity change, negative = active; 340,000 tested, 1.9% active; active = well fitted falling curve with a large enough effect; inconclusive = small, poorly fitted or top-dose-only effect; inactive = no such curve, though single readings can be large or run the other way; also: potency is read from the fitted curve at half-maximal effect; the source files actives as falling curves though it sought activators and does not explain the sign; nearly all actives have a fitted effect of over 65% in size; many hits overshoot -100%
Target sequence (P80244 whole entry, looked up): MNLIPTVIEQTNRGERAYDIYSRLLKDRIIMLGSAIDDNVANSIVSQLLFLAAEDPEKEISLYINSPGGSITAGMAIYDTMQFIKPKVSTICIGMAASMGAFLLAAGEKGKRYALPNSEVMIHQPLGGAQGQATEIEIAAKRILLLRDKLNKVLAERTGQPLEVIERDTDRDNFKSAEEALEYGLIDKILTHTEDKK
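FRET quenching reversal measured ClpP activation: 10 microg/mL B. subtilis ClpP at pH 8 with the FRET-FV decapeptide, read at 430 nm after 320 nm excitation. The 20-min minus 0-min signal was scaled between DMSO/no-enzyme wells and ADEP (5.8 microM final).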
gsp agonist: qHTS for Agonist of gsp, the Etiologic Mutation Responsible for Fibrous Dysplasia/McCune-Albright Syndrome: qHTS. gsp mutant cells, cAMP HTRF, 30 min; control for the full effect not named in the record. 340,000 tested, 0.13% active. Potency, µM (highest dose often 76.9 µM), for the others: at the highest dose activation (cAMP increase), usual class: activators. AID 624287, 2012; active = well fitted activation curve with a large enough effect; inconclusive = small, poorly fitted or top-dose-only effect, or another doubt; inactive = no such curve, though single readings can be large or run the other way; cell line not stated here;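 also: phosphodiesterase inhibitor Ro 20-1724 added with compounds to block cAMP breakdown; potency is read from the fitted curve at half-maximal effect; nearly all actives have a fitted effect of over 60% in size; about a fifth of the inactives were tested at one dose only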
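Cells stably selected in G418 were plated at 2000/well, grown 16-24 hr, then given compounds in DMSO with the PDE inhibitor […] (300 uM solution added) for 30 min at 37C; cAMP was read by HTRF.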
TRPML1 blocker: qHTS for Inhibitors of the Human Mucolipin Transient Receptor Potential 1 (TRPML1); Mucolipin-1 (Homo sapiens), Q9GZU1; TRPML1-inducible cells, Ca2+ dye fluorescence, FDSS; hits give low values; inhibition of EC80 agonist-evoked calcium signal; activity change, negative = inhibition, % (test concentration not listed); 390,000 tested, 0.02% active; in the data active means activity change below about -50%; inconclusive means about -30% to -50%; inactive means above about -30%;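 also: stimulus is agonist 54-4 at its EC80 concentration; % is scaled to controls: 0 for no effect and ±100 for the full control effect; compound concentration not given in the record; the text of the record puts the active cut at -80%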
Target sequence (Q9GZU1 whole entry, looked up): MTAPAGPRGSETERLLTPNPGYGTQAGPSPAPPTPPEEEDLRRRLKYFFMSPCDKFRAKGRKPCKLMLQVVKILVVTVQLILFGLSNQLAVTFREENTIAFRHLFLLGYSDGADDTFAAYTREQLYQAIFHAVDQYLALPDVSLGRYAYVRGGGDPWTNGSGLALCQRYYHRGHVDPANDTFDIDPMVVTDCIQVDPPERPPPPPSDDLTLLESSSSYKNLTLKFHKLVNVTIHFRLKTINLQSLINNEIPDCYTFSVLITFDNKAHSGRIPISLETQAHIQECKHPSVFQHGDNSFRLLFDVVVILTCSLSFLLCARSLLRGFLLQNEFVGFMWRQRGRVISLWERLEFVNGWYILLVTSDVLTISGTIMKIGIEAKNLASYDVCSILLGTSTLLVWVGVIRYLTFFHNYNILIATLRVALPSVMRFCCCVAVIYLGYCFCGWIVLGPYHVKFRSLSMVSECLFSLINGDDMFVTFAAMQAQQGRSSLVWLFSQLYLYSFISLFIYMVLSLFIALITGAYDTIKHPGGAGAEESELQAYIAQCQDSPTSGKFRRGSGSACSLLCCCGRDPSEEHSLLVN
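TRPML1-DL cells, Tet-induced overnight (~16 h, 37 °C) at 1,500 cells/well, were loaded with Ca8 no-wash dye plus quencher for 45-90 min at room temperature. Compounds were pinned during FDSS kinetic reading; agonist 54-4 at EC80 (4 uM final) then added.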
TRPML1 agonist: qHTS for Agonists of the Human Mucolipin Transient Receptor Potential 1 (TRPML1) | TRPML1-expressing cells, Ca2+ dye fluorescence, FDSS; host cell line not named in the record; reference of the full effect not given here | 410,000 tested, 0.12% active | activation, % (no concentration beside the values); in the data active = activation above about 50%; inconclusive = about 30% to 50%; inactive = below about 30%; also: 0% is about no effect; the text of the record puts the active cut at 80%
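Calcium fluorescence on an FDSS kinetic reader gave the read-out. Tet-induced TRPML1-DL cells were plated overnight, dye-loaded (Ca8 with quencher, 45-90 min, room temperature, dark), then read 110 s after compound addition, and again 110 s after 4uM final 54-4 (EC80).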
Menin MLL FP FL: qHTS Assay for Inhibitors Targeting the Menin-MLL Interaction in MLL Related Leukemias: Competition With Fluorescein Labeled MLL-derived Peptide | Fluorescence polarization, fluorescein-MLL peptide displacement from menin | FP activity change, % at 61.4 µM | 290,000 tested, under 10 active; inconclusive = falling polarisation curve, or a change in total fluorescence; inactive = total fluorescence flat and polarisation flat or rising; no compound was filed as active; the % refers to the polarisation; negative = inhibition;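 also: % of control where 0% means no effect; inhibitors lower the polarisation; unlabelled MLL peptide was the positive control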
gsp antagonist: qHTS for Antagonists of gsp, the Etiologic Mutation Responsible for Fibrous Dysplasia/McCune-Albright Syndrome: qHTS. gsp-mutant cells, cAMP HTRF, 30 min; control for the full effect not named in the record. Potency, µM (highest dose often 76.9 µM), for inactives: at the highest dose activity change, negative = inhibition, actives largely listed as inhibitors. 340,000 tested, 0.4% active. AID 624288, 2012; active = falling curve of any shape with a large fitted effect; inconclusive = falling curve, mostly with a smaller effect; inactive = flat or rising curve; cell line not stated here;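 also: intracellular cAMP measured with PDE inhibitor Ro 20-1724 present during compound exposure; potency is read from the fitted curve at half-maximal effect; % is scaled to controls: 0 for no effect and ±100 for the full control effect; nearly all actives have a fitted effect of over 65% in size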
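G418-selected cells were plated in DMEM/10% FBS for 16-24 h at 37C, then treated with compounds plus the PDE inhibitor […] (300 uM solution added) for 30 min at 37C. Intracellular cAMP was measured by HTRF after 30 min lysis at room temperature.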
* = called active by the depositor; ? = inconclusive; nt = not tested or not shown; & = joins results of further samples; [ ] = dose if it differs, or a comment.

SMILES | ClpP mod | gsp agonist | TRPML1 blocker | TRPML1 agonist | Menin MLL FP FL | gsp antagonist
O=C(Nc1ccc2c(c1)OCCO2)c1ccc(NC(=O)C2CCCO2)cc1 (configuration not stated) | 0.3% | ? | 2.7 | -0.1 | -1.5 | 8.0%
Cc1nn(-c2ccc(C(=O)OC(C)C)cc2)c(C)c1[N+](=O)[O-] | nt | 23.7%[15.4 µM] | 66.8 | 10.6 | -9.3 | -8.7%
CCOc1ccc2nc(N3CCCCCC3)sc2c1 | -0.4% | 11.8% | -7.4 | 0.0 | 1.0 | -18.7%
O=C(Nc1cc(S(=O)(=O)N2CCOCC2)ccc1N1CCCCC1)c1ccc(Cl)cc1 | -8.5% | 2.2% | 2.0 | 1.9 | nt | ?
CN(CC(=O)Nc1ccc(F)c(F)c1F)C(=O)CN1C(=O)NC2(CCCC2)C1=O | nt | -7.0%[15.4 µM] | 21.5 | 0.4 | nt | 2.4%
Nc1nc(CN2CCCCCC2)nc(Nc2ccccc2)n1 | -1.7% | ? | 0.4 | 0.3 | 15.6 | 13.6%
Cc1nnc(SCC(=O)Nc2cccc(S(=O)(=O)N3CCCCC3)c2)s1 | 0.9% | 13.2% | 12.2 | -0.1 | nt | -8.4%
C/C(=N\NC(=O)c1cccc(N2CCCC2=O)c1)c1ccc(N)cc1 | nt | 10.0%[15.4 µM] | -6.0 | -0.2 | -3.9 | 0.6%
COC(=O)c1cc(=O)nc2scc(C)n12 | 1.4% | -38.8%[inhibitor] | -3.6 | -0.6 | 1.0 | 5.4%
COc1ccc(/C=N/NC(=O)CCC(=O)Nc2ccc(F)cc2)c(OC)c1 | -0.9% | 0.9%[15.4 µM] | 7.0 | -0.3 | 0.1 | 0.3%
O=C1c2ccccc2C(=O)N1CC(=O)N1c2ccccc2CCc2ccccc21 | -0.1% | ? | -11.8 | 1.6 | 0.9 | -29.1%
CN(Cc1cn(C)nc1-c1ccccc1F)CC1CCN(Cc2ccccc2)CC1 | -0.4% | -3.0% | 3.2 | -0.1 | 7.4 | 20.4%
COCCN(C(=O)c1cc2c(s1)CCCCC2)c1c(N)n(CC(C)C)c(=O)[nH]c1=O | 0.9% | -5.8% | -23.2 | -0.2 | nt | 6.7%
CC(C)(C)C(=O)NNC(=O)c1cc(C(C)(C)C)nn1Cc1ccccc1 | -1.0% | -2.0%[15.4 µM] | -9.5 | -0.5 | 2.9 | 1.8%
CCCN(C(=O)CSc1nc2cc(S(=O)(=O)N(CC)CC)ccc2o1)C1CCS(=O)(=O)C1 (configuration not stated) | nt | -82.9%[15.4 µM] | -20.3 | 0.0 | nt | -1.5%
C=CCc1c(C)c(C#N)c2nc3ccccc3n2c1NCCN(C)C | -18.2% | -78.0%[inhibitor] | 22.5 | -0.4 | 2.4 | -7.5%
COc1ccc(Cn2nnnc2C(c2ccc(F)cc2)N2CCN(C3CCCC3)CC2)cc1 (configuration not stated) | -5.3% | ? | -5.1 | -0.5 | 5.1 | 4.8%
COc1cc(C(=O)OCCc2c(C)nc3nc[nH]n3c2=O)cc(OC)c1OC | nt | -1.2%[15.4 µM] | 29.3 | -0.5 | 2.1 | 3.2%
COc1cc2c(cc1OC)CN(C(=O)CSc1nc3[nH]ncc3c(=O)n1-c1ccccc1)CC2 | -15.2% | 13.0% | 6.3 | -0.3 | -2.1 | 0.0%
Cc1ccc(-c2nnn(CC(=O)N(c3ccc(F)cc3)C(C(=O)NC3CCCC3)c3ccco3)n2)o1 (configuration not stated) | -1.1% | 13.5% | -4.7 | 0.3 | 2.8 | -3.8%
O=C(COC(=O)CCSc1ccccc1Cl)Nc1ccc(F)cc1F | -28.2% | -1.2% | 1.1 | 0.4 | 2.6 | -0.6%
C=CCNCCOc1ccc(C)cc1[N+](=O)[O-] | -3.0% | -66.1%[inhibitor] | -1.7 | 1.2 | -4.8 | 10.4%
CCOC(=O)c1ccc(Nc2nc(N3CCOCC3)nc(N3CCOCC3)n2)cc1 | -2.4% | 5.8% | -11.9 | -0.6 | -10.9 | ?
COc1cc(NC(=O)c2ccc(C)cc2)ccc1NC(=O)c1cc2ccccc2o1 | 0.5%&-8.0% | 9.1%[15.4 µM] | -5.5&4.2 | -0.4&-0.3 | 1.5 | -0.4%
O=C(NCCc1ccc(F)cc1)c1cc(=O)c2ccccc2o1 | nt | 3.0%[15.4 µM] | 24.5 | 0.9 | -2.9 | -25.9%
Cc1cc2c(=O)n(C)c(SCC(=O)c3cc4ccccc4o3)nc2s1 | 0.3% | ? | -5.6 | 0.3 | 13.9 | -10.9%
O=C(NCc1ccc2c(c1)OCO2)c1ccc(CS(=O)(=O)c2ccc(Br)cc2)o1 | 0.7% | -34.4%[inhibitor] | 10.4 | 1.3 | 0.5 | -3.7%
O=[N+]([O-])c1ccc(/C=N/N2CCN(Cc3ccccc3)CC2)cc1 | -0.4% | 3.2% | 40.4 | 1.2 | -0.1 | 3.1%
O=[N+]([O-])c1ccc(CN2CCCCCC2)cc1 | 3.6% | 0.5%[15.4 µM] | 11.7 | -1.0 | 2.8 | 15.8%
CCOC(=O)c1cnn(CCOC(=O)Cc2cccs2)c1NC(=O)Cc1cccs1 | -0.2% | 13.1% | 9.1 | 0.1 | 0.5 | -0.7%
O=C(CSc1ccc([N+](=O)[O-])cn1)Nc1ccc2c(c1)OCCO2 | -1.9% | -21.3% | -1.7 | 1.0 | -1.0 | 2.6%
Cc1ccc(C)c(CN2CCNC2=O)c1 | 1.5% | -6.9% | -9.0 | -0.2 | 1.6 | 13.9%
CCC(C)(NC(=O)c1ccccc1)C(=O)O (configuration not stated) | 0.7% | 3.6% | -7.5 | 1.1 | -0.9 | 8.1%
CN(C(=O)CSc1n[nH]c(=O)[nH]c1=O)c1ccccc1 | -3.8% | 5.8% | -12.5 | 0.2 | nt | 14.8%
Cn1c(CCN2CCN(c3ccccn3)CC2)nc2cc(NS(=O)(=O)c3ccc(Cl)cc3)ccc21 | -4.2% | ? | 12.2 | 0.5 | -1.7 | -13.7%
COc1ccc(-n2cc(-c3ccc4c(c3)OCO4)n(CC(=O)Nc3cccc(C)c3)c2=O)cc1 | ? | nt | 28.6 | 0.0 | nt | nt
COc1cc(C(=O)N2CCN(c3ccc(C)cc3C)CC2)cc(OC)c1OC | -1.7% | -3.6% | 20.8 | 1.3 | 0.4 | 15.8%
CCOC(=O)C1(Cc2ccc(Cl)cc2)CCN(C(=O)c2cscn2)CC1 | nt | 5.2% | -0.9 | 0.3 | -3.4 | 6.0%
O=C(CSc1nnc(-c2ccc(F)cc2)c2ccccc12)Nc1ccccc1Cl | -6.7% | -2.4%[15.4 µM] | -4.8 | 1.9 | 5.6 | 1.1%
COc1ccc(-c2c(C)n([O-])c3c([n+]2=O)CCCC3)cc1 | -0.5% | -5.4% | -6.7 | -0.1 | 1.9 | 8.0%
CC1(C)CC(=O)C/C(=N/NC(=O)c2ccc(-c3ccccc3)cc2)C1 | nt | 7.4%[15.4 µM] | 0.8 | 1.3 | 7.8 | 4.3%
COc1ccc(Nc2oc(COc3ccc(C)cc3)nc2C#N)cc1 | -0.1% | -34.9%[inhibitor] | 25.2 | 2.8 | 2.7 | -6.6%
CCOc1cc(/C=N/NC(=O)CCn2nc(C)cc2C)ccc1O | ? | ? | nt | nt | 0.2 | -3.0%
O=C(CSC(=S)N1CCCCC1)c1ccccc1 | nt | -4.5%[15.4 µM] | 4.6 | 0.9 | -1.6 | -5.8%
COC(=O)c1ccccc1OCC(=O)N1CCN(c2ccc(Cl)cc2)CC1 | -3.4% | -1.3% | 39.8 | 1.7 | -2.0 | -12.0%
CCC(CC)C(=O)Nc1cc(NC(=O)C(CC)CC)cc(C(=O)O)c1 | -0.8% | -16.7% | -1.7 | -0.4 | 0.9 | 7.1%
O=C(CCCC(=O)N(CC(=O)NC1CCCC1)Cc1ccc2c(c1)OCO2)Nc1ccccn1 | 0.5% | -27.0% | 24.6 | -0.7 | 0.4 | 2.8%
CNC(=O)COC(=O)COc1ccc2c(C)cc(=O)oc2c1 | nt | -6.9% | -0.7 | 0.4 | 0.8 | -10.3%
COc1ccccc1C1c2c(C)nn(-c3ccccc3)c2NC(=O)C1NC(=O)c1ccccc1 (configuration not stated) | 1.2% | 3.4% | -19.5 | -0.1 | -0.4 | -8.2%
COC(=O)c1sccc1NC(=O)/C=C/C(=O)O | -2.4% | -22.5% | 0.7 | -0.3 | -0.2 | 1.8%
CCN(CC)CCCNC(=O)C1CCC(=O)N(c2ccc(OC)cc2)C1c1ccc(F)cc1 (configuration not stated) | -0.9% | -3.2% | 4.5 | 0.5 | 1.2 | 5.8%
C=CCn1c(SCC(=O)Nc2cc(C)on2)nc2sc3c(c2c1=O)CCCC3 | 0.0% | 17.3% | -2.6 | -1.0 | -0.8 | 10.7%
Cc1cc(C)c(Cc2c(C)nc3c(C(=O)NCc4ccco4)cnn3c2C)c(C)c1 | 20µM* | -64.8%[inhibitor] | 59.1 | 0.4 | -1.3 | -7.3%
CCCCCCC1CC(CCC(=O)Nc2ccc([N+](=O)[O-])cc2)C(=O)O1 (configuration not stated) | 0.7% | 19.9% | -3.8 | 1.1 | 0.9 | 5.3%
O=c1[nH]c(=S)c2c(n1-c1ccccc1)CCC2 | 1.2% | ? | -4.1 | 0.1 | 0.8 | 39.8%[activator]
CC(C)CSc1ccccc1NC(=O)c1sc2nc(-c3ccncc3)ccc2c1N | -1.0% | nt | 7.9 | 2.6 | nt | nt
CCOC(=O)c1ccc(S(=O)(=O)Nc2cc(C(=O)O)ccc2Cl)cc1 | nt | -4.7%[15.4 µM] | 0.5 | 0.7 | -5.0 | nt
Cc1ccc(NC(=O)CNc2ccccc2N2CCCC2=O)cc1S(=O)(=O)N1CCOCC1 | -0.9% | 0.3%[15.4 µM] | 13.1 | 0.4 | nt | 3.4%
Cn1c(=O)cc(SCC(=O)N2CCN(C3CCCCC3)CC2)c2ccccc21 | nt | -51.1%[15.4 µM] | 4.4 | -0.5 | nt | -17.5%
COCC1CCCN(Cc2cn(Cc3ccccc3)nc2-c2cc3ccccc3o2)C1 (configuration not stated) | -9.9% | -40.1%[inhibitor] | 88.2 | -0.5 | -0.9 | -11.1%

High-throughput results as filed in PubChem BioAssay.
